YopH PTP inh – blocks Yersinia enterocolitica YopH tyrosine phosphatase. fluorescence Ex485/Em525. inhibition, %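 (about 10 µM by stock and volumes)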. hit rate 0.16% among 140,000. AID 898;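 active = inhibition of 50% or more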;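 note: controls were vehicle for no effect and minimum signal wells for full effect; inactives centre near -20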
Mtb bLac sens – beta-lactam sensitization of Mtb H37Rv; hit rate 0.27% among 330,000; AID 434955; inhibition, % at 25 µM; M. tuberculosis H37Rv growth with meropenem, percent inhibition; hits of this screen are not shown here;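 active = about 74% or more and at least 40 points above the plate without the antibiotic, then above 30% in a dose series; inconclusive = first-round hits that could not be retested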;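 note: growth measured after seven days incubation then overnight dye step; 0% = bacteria only wells and 100% = bacteria with antibiotic; twin plates without the antibiotic show which effects depend on it; some results filed as inactive read as strong as hits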
RecA intein inh – blocks M. tuberculosis RecA intein splicing; P9WHJ3; cell-free RecA intein splicing, fluorescence; inhibition, %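 (about 9 µM by stock and volumes)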; hit rate 0.75% among 290,000; AID 2221; in the data active = inhibition above about 30%; inconclusive = no clear call, values can overlap the other calls;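 note: 0% = vehicle wells and 100% = reference inhibitor control wells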
Target sequence (P9WHJ3 whole entry, looked up): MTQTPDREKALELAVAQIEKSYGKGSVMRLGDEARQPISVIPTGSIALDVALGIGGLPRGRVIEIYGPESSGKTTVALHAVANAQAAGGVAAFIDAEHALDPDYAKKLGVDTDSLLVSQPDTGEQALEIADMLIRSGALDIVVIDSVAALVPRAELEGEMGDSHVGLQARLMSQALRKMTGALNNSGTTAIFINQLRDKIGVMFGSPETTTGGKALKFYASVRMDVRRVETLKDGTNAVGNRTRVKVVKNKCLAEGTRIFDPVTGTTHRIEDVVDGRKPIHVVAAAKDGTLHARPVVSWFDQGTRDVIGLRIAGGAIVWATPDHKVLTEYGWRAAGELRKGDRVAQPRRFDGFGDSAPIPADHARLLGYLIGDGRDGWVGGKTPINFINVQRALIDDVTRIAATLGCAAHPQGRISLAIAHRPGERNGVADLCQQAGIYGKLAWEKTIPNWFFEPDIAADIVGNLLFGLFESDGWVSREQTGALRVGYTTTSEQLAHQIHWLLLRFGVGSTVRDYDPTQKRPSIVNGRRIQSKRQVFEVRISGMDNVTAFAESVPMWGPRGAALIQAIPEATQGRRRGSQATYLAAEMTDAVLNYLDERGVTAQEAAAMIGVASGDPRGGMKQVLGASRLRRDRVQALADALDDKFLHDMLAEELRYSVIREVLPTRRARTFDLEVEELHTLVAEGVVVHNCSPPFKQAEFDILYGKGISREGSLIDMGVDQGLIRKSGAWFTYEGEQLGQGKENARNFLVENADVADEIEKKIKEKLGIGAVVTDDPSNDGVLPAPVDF
Mtb growth – M. tuberculosis H37Rv growth inhibitors, H37Rv strain (AID 1626) | M. tuberculosis H37Rv growth inhibition; higher % means a stronger effect | one-dose inhibition, % at 10 µM; IC50 in µM for titrated hits | hit rate 0.95% among 220,000;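 active = confirmed in a dose series; inconclusive = inhibition above 80% but not taken into the dose series; inactive = below 80% or under 30% at every dose of the series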;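 note: bacteria incubated seven days before Alamar blue readout; 0% = bacteria only wells and 100% = bacteria with antibiotic wells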
Arbovirus inh – blocks arbovirus infection; hit rate 0.37% among 200,000; AID 1251; inhibition, % at 10 µM; arbovirus infection cell-based antiviral screen;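 active = inhibition from about 30%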;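 note: bluetongue infection of BSR cells; cell survival read as ATP light after 72 h; 0% = infected wells without compound and 100% = uninfected wells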
Arbovirus inh repeat – also measured in Arbovirus inh; calls as there; inhibition, %; measured here: 10K subset replicate screen; many hits read low in the repeat;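 first of two repeat runs on a subset; 0% = infected and 100% = uninfected wells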
* = called active by the depositor; ? = inconclusive; · = no result given. The list is partial. The share of hits here may be higher or lower than overall.

SMILES	YopH PTP inh	Mtb bLac sens	RecA intein inh	Mtb growth	Arbovirus inh	others
O=C(Cn1c2ccccc2c(=O)c2ccccc21)N/N=C/c1ccc(N2CCCC2)c([N+](=O)[O-])c1	18.6	7.7	-7.8	6.3%	-41.1
Cc1ccc(/C=N/Nc2ccc(Cl)nn2)cc1	·	-3.8	-3.7	-1.9%	·
Cc1ccc(C)c(NC(=O)CN(C)C(=O)c2sccc2C)c1	·	-1.9	-3.0	·	·
Cc1cc(C)cc(NC(=O)C(=O)NCCc2c[nH]c3ccccc23)c1	·	2.8	-0.5	11.2%	-4.4
CC1(C)CC2(CC(c3ccccc3)c3ccc(O)cc3O2)NC(=S)N1 (configuration not stated)	·	-10.6	2.0	-9.6%	3.0
CCC(=O)c1ccc(N2CCN(C(=O)c3cc([N+](=O)[O-])ccc3F)CC2)c(F)c1	·	31.0	8.1	22.0%	2.1
COCCn1c(SCc2nnc(-c3ccccc3)o2)nc2sc3c(c2c1=O)CCC3	-45.7	·	0.1	-3.5%	-5.8
COC(C/C=C\[C@H](O)[C@@H](C)OCc1ccccc1)OC	·	-9.8	-1.4	-13.7%	·
CCCCC(=O)N/N=C/c1c(O)n(CC)c(=S)[nH]c1=O	-24.9	19.8	·	12.4%	3.5
S=c1[nH]nc(C(c2ccccc2)C2CCCCC2)o1 (configuration not stated)	·	2.8	3.9	-13.6%	·
CS(=O)(=O)c1ccc(C(=O)OCC(=O)NC2CCS(=O)(=O)C2)cc1[N+](=O)[O-] (configuration not stated)	·	-6.6	-0.2	2.6%	9.7
CCOC(=O)C(C)Oc1c(C(=O)OC)sc2ncccc12 (configuration not stated)	·	-3.8	1.0	-2.4%	-0.3
C/C(=C\[C@@H](NP(=O)(c1ccccc1)c1ccccc1)c1ccccc1)CO[Si](c1ccccc1)(c1ccccc1)C(C)(C)C	·	-3.3	1.8	0.7%	·
Cc1ccc(C(=O)NCCCNC(=O)COc2ccc(C)c(C)c2)cn1	·	-3.4	1.5	·	·
Cc1ccc(CNC(C)(C)CO)cc1	-7.4	-1.5	-1.0	0.7%	5.2
Cc1ccc(NC(=O)CCCc2nc3ccccc3s2)c(O)c1	·	-1.3	-0.4	7.2%	11.8
COc1cccc(NCc2cc(=O)oc3cc(C)c(O)cc23)c1	·	-2.1	-0.8	·	·
O=C1CC(c2ccco2)CC(O)=C1C=Nc1ccccc1-c1ccccc1 (configuration not stated)	·	65.3	-0.6	67.2%	-1.8
O=C(Nc1ccc(N2CCCC2)cc1)c1ccc([N+](=O)[O-])cc1Cl	-26.6	4.1	2.3	0.7%	-4.1
COc1ccc(OC)c(NC(=O)C2CC(=O)N(CCc3ccccc3)C2)c1 (configuration not stated)	·	-8.4	0.4	6.7%	4.3
S=c1[nH]nc(-c2ccc(Cl)cc2)n1CCCN1CCOCC1	·	-5.1	0.0	-6.1%	-2.8
CCCN(Cc1ccco1)S(=O)(=O)c1ccc(OC)c(OC)c1	·	3.0	0.7	-2.9%	·
N#CCCSCc1ccc2oc(C(=O)O)cc2c1	-48.6	-6.0	1.0	-4.5%	4.9
COc1ccc(N2CCN(CCNC(=O)Nc3ccc(C)c(Cl)c3)CC2)cc1	·	3.6	-2.1	·	·
Cc1cccc(CC(=O)N2CCOCC2)c1	·	-0.3	-3.2	·	·
CCN(CC)CCn1c2c(c(SCC(=O)Nc3ccc(C(C)C)cc3)nc1=O)CCCC2	·	-5.9	1.6	·	·
O=C(/C=C/c1ccccc1[N+](=O)[O-])NCCN1C(=O)S/C(=C\c2ccc(F)cc2)C1=O	·	4.8	1.8	-0.8%	-8.0
COC(=O)c1ccccc1NC(=O)C1=CC(c2cccs2)=NS(=O)(=O)N1C	·	-4.8	-0.9	·	·
COc1ccc(NC(=O)c2ccccc2OCc2ccc(F)cc2)c(OC)c1	·	97.2	23.3	·	·
COCc1c(C(=O)N/N=C(\C)c2ccncc2)nnn1-c1nonc1N	·	11.3	-1.9	·	·
CCCc1[nH]nc2c1C1(C(=O)N(C(C)C)c3ccccc31)C(C#N)=C(N)O2 (configuration not stated)	-0.6	-0.8	3.9	-6.1%	-1.0
CC(=O)c1ccc(N2CCN(C(=O)C3CCN(S(=O)(=O)Cc4ccccc4)CC3)CC2)cc1	10.8	-6.3	-0.2	1.1%	1.7
Cc1ccc(NC(=O)C(=O)NCCOc2ccccc2Cl)cc1	-33.0	2.5	-2.3	8.8%	19.1
CS(=O)(=O)N1CCC(C(=O)Nc2ccc3c(c2)OCCO3)CC1	0.9	-4.0	-4.6	-15.7%	4.7
Cc1ccc(OCCOCCOc2ccc(Br)cc2/C=N\NC(=O)c2ccncc2)cc1	-22.9	98.3	-1.9	?	10.2
Cc1ccc(N=C2S/C(=C/c3cccc(OCC(=O)O)c3)C(=O)N2C)cc1C	·	6.5	11.5	·	·
COc1ccccc1CC(=O)N1CCN(c2ccc([N+](=O)[O-])cc2)CC1	·	4.5	-0.6	4.7%	7.7
CCc1c(O)nc(SCC(=O)N2CCCCC2)n(-c2ccccc2C)c1=O	-39.0	-2.7	0.1	-2.2%	7.2
CC(C)Cc1c(O)nc(SCC(=O)Nc2ccc3c(c2)CCC3)[nH]c1=O	10.9	97.8	-0.9	>100µM*	1.7
O=C(C1CCN(Cc2cccs2)CC1)N1CCN(Cc2ccc3c(c2)OCO3)CC1	·	-4.4	-2.3	-1.5%	-7.5
COc1ccccc1NC(=S)N(CCCN1CCOCC1)Cc1cn(C)c2ccccc12	-25.1	-2.4	1.1	0.2%	14.1
O=C(CSCC(=O)N1CCCCC1)OCC(=O)c1c[nH]c2ccccc12	-9.4	-23.7	2.6	-1.5%	74.6*
CN(n1cnc2ccccc2c1=O)S(C)(=O)=O	·	-1.6	0.1	-2.3%	·
CCCc1nnc(NC(=O)Nc2ccccc2OC)s1	-25.0	5.0	-0.2	2.3%	13.0
COc1ccc(CC(=O)Nc2nnc(SCC(=O)NCc3ccco3)s2)cc1OC	·	-5.6	-0.6	-14.7%	-4.5
O=C(NCCc1cccc(F)c1)C1CCN(S(=O)(=O)c2ccc(F)cc2)CC1	·	-3.3	-0.2	·	·
O=C(Nc1ccc(NS(=O)(=O)c2ccccc2)cc1)c1cccnc1	·	-5.3	-0.2	-5.3%	8.2
O=c1cc(CSc2nnc(Nc3ccccc3F)s2)nc2sccn12	·	4.0	1.1	-9.4%	-7.0

Among those listed so far, two have a COOH group.
SMILES	YopH PTP inh	Mtb bLac sens	RecA intein inh	Mtb growth	Arbovirus inh	others
N#CCCSCc1ccc2oc(C(=O)O)cc2c1	-48.6	-6.0	1.0	-4.5%	4.9
Cc1ccc(N=C2S/C(=C/c3cccc(OCC(=O)O)c3)C(=O)N2C)cc1C	·	6.5	11.5	·	·

Looked up one by one from above:
SMILES	YopH PTP inh	Mtb bLac sens	RecA intein inh	Mtb growth	Arbovirus inh	others
Cc1ccc(N=C2S/C(=C/c3cccc(OCC(=O)O)c3)C(=O)N2C)cc1C	·	6.5	11.5	·	·
COc1ccccc1NC(=S)N(CCCN1CCOCC1)Cc1cn(C)c2ccccc12	-25.1	-2.4	1.1	0.2%	14.1
Cc1cccc(CC(=O)N2CCOCC2)c1	·	-0.3	-3.2	·	·
Cc1ccc(NC(=O)C(=O)NCCOc2ccccc2Cl)cc1	-33.0	2.5	-2.3	8.8%	19.1

The list goes on.
SMILES	YopH PTP inh	Mtb bLac sens	RecA intein inh	Mtb growth	Arbovirus inh	others
COc1ccc(C(=O)NC2CCCCC2)cc1S(=O)(=O)N1CCOCC1	·	4.4	0.4	·	·
O=[N+]([O-])c1ccc(N2CCCCC2)s1	·	99.7	·	48.3%	2.4
CC(=O)Nc1ccc(N(C(=O)CNC(=O)c2ccco2)C(C(=O)NCC2CCCO2)c2ccccc2)cc1 (configuration not stated)	·	-0.4	-0.6	-0.5%	8.8
CCOC(=O)c1c(/N=C/c2c(O)n(-c3ccccc3F)c(=S)[nH]c2=O)sc2c1CCCC2	2.1	11.4	-0.6	-2.9%	-2.4
Cc1csc(NC(=O)CSc2nnc(NC(=O)NC(C)(C)C)s2)n1	·	3.4	-2.8	·	·
COc1cccc(-c2nc(CS(=O)(=O)CC(=O)N3CCN(C)CC3)c(C)o2)c1	-8.8	-6.7	2.3	-4.0%	1.3
CC(C)C(=O)c1c(C(C)C)nn2ccccc12	·	-6.5	-1.8	-3.2%	·
O=C(NCc1ccc(C(F)(F)F)cc1)C1CC(c2ccccc2C(F)(F)F)=NO1 (configuration not stated)	·	1.4	-0.4	-6.3%	·
CN1C(=O)C(=Cc2ccc(N3CCCCCC3)o2)C(=O)N(C)C1=S	-14.1	87.5	·	15.1%	5.3
O=C(NC1CCCCC1)C1CCC(CNS(=O)(=O)c2ccccc2)CC1 (configuration not stated)	·	-1.4	-1.8	·	·
COc1ccc(OC)c(-c2cc(C(=O)NCc3ccc(Cl)cc3)no2)c1	·	7.7	0.5	1.5%	2.4
COc1ccc(C)cc1NC(=O)CCCN1C(=S)NC(C)(C)CC1C (configuration not stated)	-26.1	-0.7	-0.6	-3.8%	-1.6
CCCNC(=O)c1onc(CSc2ccncc2)c1C(=O)NCCC	·	-2.3	1.4	9.6%	·
Cc1ccccc1NC(=O)N1CCN(C(=O)c2ccco2)CC1	·	4.6	-4.5	-0.7%	1.8
Nc1c(-c2cccc([N+](=O)[O-])c2)nc2ccccn12	-16.0	44.2	-3.2	1.5%	-6.1
COc1ccc(NC(=O)N2C3CCCC2CC(NC(=O)c2ccccc2)C3)cc1 (configuration not stated)	·	-3.2	-3.2	·	·
CN1c2ccc(C=O)c3c(C=O)ccc(c23)N(C)C1(C)C	·	9.2	63.9*	·	·
O=C(NC(Cc1ccccc1)C(=O)O)/C(=C\c1ccccc1F)NC(=O)c1ccccc1 (configuration not stated)	·	-7.3	-0.7	-6.3%	2.9
CCOC(=O)N1CCN(C(=S)Nc2ccc3nc(N4CCN(CC)CC4)cc(C)c3c2)CC1	-3.9	-4.6	-6.4	-3.0%	-18.6
CCOc1ccc(-c2nnn(CC(=O)NCCc3c[nH]c4ccccc34)n2)cc1	-46.1	5.0	-1.2	-3.2%	10.4
O=C(NN=C1CCCCC1)NC1CCCCC1	-22.3	-5.6	-4.9	-3.7%	-14.2
CCOC(=O)c1ccc(N2C(=O)C=CC2=O)cc1	-4.1	-4.1	-0.7	-1.1%	0.5
O=C(OCc1ccccc1Cl)c1ccccc1C(=O)c1ccccc1	-10.2	34.5	13.7	1.2%	3.4
CC(C)CCOP(=O)(c1ccc(N(C)C)cc1)C(O)c1c(Cl)cccc1Cl (configuration not stated)	·	6.3	-1.9	·	·
Cc1n[nH]c(=S)n1/N=C/c1ccccc1OCc1ccc(Cl)cc1Cl	-18.8	-7.2	-1.3	5.4%	2.5
CC(C(=O)NC(c1ccccc1)c1ccccc1)N1CCOCC1 (configuration not stated)	·	-6.8	0.4	·	·
Cc1ccc(-n2c(SCC(=O)OC(C)C)nnc2-c2ccccn2)cc1	-1.3	1.1	1.3	-1.9%	-2.5
COc1ccc(NC(=O)/C(Cl)=C(/Cl)S(=O)Cc2ccc(C)cc2)cn1 (configuration not stated)	-8.6	100.3	89.0*	?	-32.6
COC(=O)C1=C(C(=O)OC)[C@@H]2Nc3ccccc3[C@@]23C[C@@H](C(=O)OC)N(C(=O)COCc2ccccc2)C3=N1	·	-8.6	14.6	2.4%	·
N#CCCN(C(=O)COc1ccc(C#N)cc1)c1ccc(F)cc1	·	1.4	-1.0	1.3%	-5.7
N#C/C(=C\c1ccccc1[N+](=O)[O-])C(=O)NCc1ccccc1	·	0.5	11.8	-3.4%	·
COc1ccc(NCc2cc3ccccc3[nH]c2=O)cc1	-38.8	92.7	-2.8	89.6%	5.0
COc1ccc(NC(=O)CC2SC(=Nc3ccccc3)NC2=O)c(OC)c1 (configuration not stated)	-25.0	-7.7	0.2	-0.4%	0.3	Arbovirus inh repeat=0.7
Nc1ncc(-n2cncn2)c(-c2ccc(Cl)cc2)n1	·	3.8	-2.9	3.2%	0.1
COc1ccc(S(=O)(=O)N2CCOC23CCN(S(=O)(=O)c2ccc(F)cc2)CC3)cc1	·	1.1	6.5	·	·
COc1ccccc1Nc1nc(C)cc(C)c1C(N)=O	32.3	-0.7	0.5	1.5%	-7.0
O=C(Cn1ccsc1=NC(=O)c1ccco1)c1ccccc1	-43.0	-11.1	1.9	-4.9%	12.9
O=C(CC(Nc1ccccc1Cl)C(=O)O)c1ccccc1 (configuration not stated)	·	-1.4	1.8	1.0%	3.6
CN(CC(O)COc1ccc(S(=O)(=O)N2CCOCC2)cc1)C1CCCCC1 (configuration not stated)	-7.0	3.5	-1.4	0.2%	2.0
Cc1ccc(NC(=O)C2CC(=O)N(CCc3ccccc3)C2)c(C)c1 (configuration not stated)	·	-11.2	0.4	-1.0%	5.4
